Resorufin fluor: compounds fluorescent in resorufin spectral region | Compound fluorescence, resorufin region 547/598 nm, buffer; hits give high values | actives 0.04% (n = 59,000) | max dye-equivalent concentration, M; active = above 10 nM dye equivalent; inconclusive = 1 to 10 nM; inactive = 1 nM or less; a few of its hits are not listed in these tables; further: highest value over a series up to 38 µM
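Compounds in 100 mM Tris, pH 8.0, incubated 15 min at room temperature, then fluorescence read at 547 nm excitation/598 nm emission. Signal converted to dye-equivalent concentration via an on-plate six-point resorufin standard curve, per compound concentration.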
TSHR agonist: TSH receptor (human) agonism; P16473; HEK293-CNG-TSHR cells (CNG channel as cAMP sensor), membrane potential dye, cAMP; Potency, µM (top dose mostly 57.1 µM), inactives show at the top dose activation, usual class: activators; actives 0.48% (n = 73,000); AID 926; active = well fitted activation curve of enough size with the parental cells flat; inconclusive = any curve in the parental cells; inactive = parental cells flat and receptor cells flat or falling; further: potency means the concentration at half of the fitted maximal effect; % of control where 0% means no effect; weak receptor curves with flat parental cells got no call and are not listed
Target sequence (P16473 whole entry, looked up): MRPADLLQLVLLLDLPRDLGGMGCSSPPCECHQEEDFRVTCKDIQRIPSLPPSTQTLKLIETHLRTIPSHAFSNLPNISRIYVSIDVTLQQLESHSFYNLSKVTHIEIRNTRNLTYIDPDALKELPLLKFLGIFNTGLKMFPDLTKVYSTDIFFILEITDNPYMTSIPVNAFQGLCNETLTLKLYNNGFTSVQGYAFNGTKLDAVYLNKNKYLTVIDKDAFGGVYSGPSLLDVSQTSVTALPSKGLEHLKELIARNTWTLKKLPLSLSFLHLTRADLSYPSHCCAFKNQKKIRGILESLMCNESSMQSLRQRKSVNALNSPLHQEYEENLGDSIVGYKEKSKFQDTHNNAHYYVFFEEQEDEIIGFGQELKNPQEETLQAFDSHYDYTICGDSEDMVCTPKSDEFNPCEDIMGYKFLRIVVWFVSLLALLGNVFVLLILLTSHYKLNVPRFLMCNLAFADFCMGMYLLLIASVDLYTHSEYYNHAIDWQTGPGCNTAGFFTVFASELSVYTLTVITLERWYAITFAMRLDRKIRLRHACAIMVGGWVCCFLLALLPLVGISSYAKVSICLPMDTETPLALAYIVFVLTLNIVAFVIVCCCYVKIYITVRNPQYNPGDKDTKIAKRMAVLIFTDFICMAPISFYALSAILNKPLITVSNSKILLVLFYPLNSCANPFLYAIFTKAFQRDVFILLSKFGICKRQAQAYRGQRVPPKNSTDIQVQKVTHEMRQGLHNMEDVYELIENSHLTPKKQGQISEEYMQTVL
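cAMP rise detected as CNG-channel membrane depolarization by fluorescent dye (emission 590 nm), 30 min after compound, following 60 min dye loading containing 100 uM RO 20-1724 at room temperature. Cells: TSHR/CNG HEK 293, with parental CNG HEK 293 as control.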
AID923: qHTS Assay for Allosteric/Competitive Inhibitors of Caspase-1: Spectroscopic Profiling in AFC Spectral Region; compound fluorescence, AFC spectral region (405/520 nm); almost no hit is shown here; Potency, µM (series often up to 57.5 µM), for inactives: top-dose fluorescence increase, actives largely listed as activators; actives 1.1% (n = 75,000); active means well fitted activation curve with a large enough effect; inconclusive means small, poorly fitted or top-dose-only effect;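 further: potency means the concentration at half of the fitted maximal effect; 0% is about no effect; scaled to a free AFC standard on each plate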
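Compound autofluorescence profiled at 405 nm ex/520 nm em during kinetic caspase 1 run (50 nM enzyme, 5 uM Ac-WEHD-AFC, HEPES pH 7.5, 10 mM DTT). Titration up to 57 uM; baseline from regression intercept, normalized to AFC standard curve.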
A647 autofl: compound autofluorescence in A647 spectral region | 59,000 tested, under 10 active | max dye-equivalent concentration, M | Compound fluorescence, A647 channel (570/671 nm), Tris buffer; active means above 1 µM dye equivalent; inconclusive means 0.1 to 1 µM; inactive means 0.1 µM or less;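 further: values scaled relative to a standard on each plate; highest value over a series up to 38 µM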
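Fluorescence read (570 nm ex, 671 nm em) after 15 min RT incubation of compounds in 100 mM Tris buffer, pH 8.0; values expressed as dye-equivalent concentration against a six-point A647 standard series on each plate.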
A488 fluor: A488 region autofluorescence; compound autofluorescence, A488 spectral region, dye equivalency; hits give high values; max dye equivalency, M; actives 0.1% (n = 59,000); active = above 10 nM dye equivalent; inconclusive = 1 to 10 nM; inactive = 1 nM or less; about half of its hits are not listed in these tables;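 further: highest value over a series up to 38 µM; compound alone in buffer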
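Read-out: relative fluorescence at 480/540 nm, expressed as Alexa 488 dye-equivalent concentration from a six-point A488 standard included per plate. Conditions: 100 mM Tris, pH 8.0; 15 min incubation, room temperature.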
Numbers without * were called inactive; i = inactive; ? = inconclusive; · = not tested or not shown; [ ] = remark or other dose.

A first look, 5 compounds:
SMILES	Resorufin fluor	TSHR agonist	AID923	A647 autofl	A488 fluor
Cc1cc(C)n2c(SCCC(C)C)nnc2n1	i	-0.2%	-3.4%	4.31e-08	i
O=S1(=O)CCN2C(=N1)Sc1c2ccc2c1CCCC2	i	28.4%	-0.5%	1.3e-09	i
CCCCS(=O)(=O)NC1=NCN(CC)CN1	i	2.6%	-0.6%	1.4e-09	i
O=C(Nc1c(C(=O)Nc2cccc(F)c2)oc2ccccc12)c1ccc2c(c1)OCO2	i	12.9%	12.3%	1e-09	i
CC1(C)OC(=O)C(=CNCC(O)c2ccccc2)C(=O)O1 (stereo not drawn)	i	-1.3%	0.3%	1e-09	i

Main list, from the first entry:
SMILES	Resorufin fluor	TSHR agonist	AID923	A647 autofl	A488 fluor
Cc1cc(C)n2c(SCCC(C)C)nnc2n1	i	-0.2%	-3.4%	4.31e-08	i
O=S1(=O)CCN2C(=N1)Sc1c2ccc2c1CCCC2	i	28.4%	-0.5%	1.3e-09	i
CCCCS(=O)(=O)NC1=NCN(CC)CN1	i	2.6%	-0.6%	1.4e-09	i
O=C(Nc1c(C(=O)Nc2cccc(F)c2)oc2ccccc12)c1ccc2c(c1)OCO2	i	12.9%	12.3%	1e-09	i
CC1(C)OC(=O)C(=CNCC(O)c2ccccc2)C(=O)O1 (stereo not drawn)	i	-1.3%	0.3%	1e-09	i
CCOC(=O)C(C)Sc1ccc2nnc(-c3ccc(F)cc3)n2n1 (stereo not drawn)	i	3.0%[11.4 µM]	-0.2%	1.4e-09	i
CCc1nnc(NC(=O)c2ccc(NS(=O)(=O)c3ccccc3)cc2)s1	i	7.3%	-2.2%	2.97e-08	i
CCC1CCCCN1CCNS(=O)(=O)c1ccc2c(c1)oc(=O)n2C (stereo not drawn)	·	4.1%	-1.4%	·	·
NS(=O)(=O)c1ccc(CCNC2CC(=O)N(CCc3ccccc3)C2=O)cc1 (stereo not drawn)	·	-6.8%	-4.5%	·	·
COc1cc(C(=O)N2CCN(C(=O)Cc3ccccc3)CC2)cc(OC)c1OC	·	-8.2%	-0.6%	·	·
Cc1cccc(C(=O)Nc2cc(=O)n(C)c(=O)n2C)c1	·	-1.6%	4.0%	·	·
CCOC(=O)c1[nH]c2cc(OC)c(OC)cc2c1NC(=O)c1ccc2c(c1)OCO2	·	-4.5%	1.0%	·	·
CCOC(=O)c1ccc(-c2c(C(=O)OCC)oc3cc(O)c(CC)cc3c2=O)o1	i	25.9%	1.3%	1.2e-09	i
COc1ccccc1Nc1nc(N)nc(CSc2nnc(C)s2)n1	i	13.6%	-0.9%	1e-09	i
COc1cc2ccccc2cc1-c1nnc(COc2ccccc2)o1	·	10.2%	1.0%	·	·
COc1ccc(Cc2nnc(SCc3c(C)noc3C)n2C2CCCCC2)cc1OC	i	?	-1.7%	1.62e-08	i
Cc1ccc(S(=O)(=O)C2(C(=O)O)CCCC2)cc1C	i	-0.1%	1.2%	2.65e-08	i
Cc1oc(C(C)(C)C)cc1C(=O)Nc1ccc2c(c1)OCCO2	i	8.9%	0.7%	9.3e-09	i
CSc1nc2sc3c(c2c(=O)n1C1CCCCC1)CCN(C)C3	i	·	·	7.42e-08	i
COc1cccc(CN(CC(=O)NCC2CCCO2)C(=O)CCC(=O)Nc2cc(C)on2)c1 (stereo not drawn)	i	8.1%	0.8%	6.25e-08	i
CCOc1ccc(C(=O)CSc2nnc(N)s2)cc1	i	-6.4%	1.1%	4.71e-08	i
O=c1cnc2cnc(Oc3cccc(Cl)c3)nc2n1C[C@H]1CCCO1	i	3.3%	-1.4%	2.8e-09	i
CCOC(=O)CNC(=O)CSc1nc2sc(C)c(C)c2c(=O)n1C	i	1.1%[11.4 µM]	-0.8%	5.8e-09	i
CCn1cc(C(=O)NCC2COc3ccccc3O2)c2cc(OC)c(OC)cc2c1=O (stereo not drawn)	i	20.2%	-0.1%	2.61e-08	i
O=C(Nc1ccc(OC(=O)c2cccnc2)cc1)c1cccnc1	i	2.0%	3.5%	2e-09	i
CCCc1cc(C(=O)Nc2ccc(C)cc2)no1	·	-4.3%	2.3%	·	·
CC1(C)CC(=O)C(/C=N/c2ccccn2)=C(O)C1	·	4.4%	0.7%	·	·
COc1ccc(CCN(C)C(=O)N2CCOCC2)cc1OC	i	-1.8%	-0.8%	4.33e-08	i
Clc1ccccc1-c1nc(N2CCNCC2)c2ccccc2n1	i	0.6%	-0.6%	1e-09	i
COc1ccc(C(C)=O)cc1COC(=O)c1ccc(S(=O)(=O)N2CCOCC2)cc1	i	10.1%	-1.2%	2.7e-09	i
CCn1nnc(-c2ccccc2NC(=O)C(F)(F)F)n1	i	6.0%	-0.5%	6.43e-08	i
COc1ccc(CNc2ccnc(-c3ccccc3C(F)(F)F)n2)c(OC)c1	i	?	-2.0%	2.73e-08	i
O=C(NC1CCCCCC1)c1cc(S(=O)(=O)N2CCC3(CC2)OCCO3)ccc1F	i	?	-0.6%	3.3e-09	i
O=C(CCNS(=O)(=O)c1cccc2nsnc12)NC1CCN(Cc2ccccc2)CC1	i	0.2%	2.6%	1e-09	i
O=c1cc(-c2ccccc2)nc2n1Cc1ccccc1-2	i	20.5%	0.5%	4.9e-09	i
Cc1cc(C)c2c(CN3CCN(C)CC3)cc(=O)oc2c1	i	12.2%	-1.5%	1.73e-08	i
CCOC(=O)C1CCN(C(=O)Cc2c(C(=O)O)[nH]c3ccccc23)CC1	i	-2.4%	0.4%	2.5e-09	i
O=C(CCc1nc(-c2ccccc2)no1)NCc1ccco1	i	8.6%	1.1%	4e-09	i
O=C(NCCN1CCc2ccccc2C1)C1CCN(S(=O)(=O)N2CCCCC2)CC1	i	?	-2.3%	3.3e-09	i
CCOCCCNC(=O)C1CCN(C(=O)Nc2ccc(Cl)cc2)CC1	i	-1.9%	-0.4%	1.01e-08	i
COc1ccc2[nH]cc(CCNc3ncncc3-c3cccc(C#N)c3)c2c1	i	3.4%	-0.4%	1.3e-09	i
CCOC(=O)N1CCC(NC(=O)CSCc2nc(-c3cccc(OC)c3)oc2C)CC1	i	?	-0.6%	5e-09	i
c1ccc(-c2cccc(N3CCCC4(CCNCC4)C3)c2)cc1	i	0.9%	-0.4%	1e-09	i
COc1cc(OC)cc(-c2cc3nc(C)c(CCC(=O)NC(C)CCc4ccco4)c(C)n3n2)c1 (stereo not drawn)	i	2.1%[11.4 µM]	-0.6%	3.67e-08	i
Cc1ccc2[nH]c(=O)c(CN(Cc3cccs3)Cc3nnnn3Cc3ccccc3)cc2c1	i	?	-1.1%	7.6e-09	i
Nc1c(-c2ccc(Cl)cc2)nnn1-c1ccccc1	i	1.9%	-0.1%	1.58e-08	i
CC(C)C1NC2(C(=O)c3ccccc3C2=O)C2C(=O)N(c3ccc(F)cc3)C(=O)C12 (stereo not drawn)	·	7.3%	6.9%	·	·
Cc1nnc(SCCCn2c(N3CCN(c4ccccc4)CC3)nc3c2c(=O)[nH]c(=O)n3C)s1	i	-29.9%	1.0%	2.98e-08	i
O=C(Cc1ccc(Cl)cc1)Nc1ccc(N2CCN(C(=O)c3ccco3)CC2)cc1	i	-6.3%	0.2%	2.09e-08	i
Cc1ccc(C(=O)CSc2ccccn2)cc1	i	13.9%	2.7%	3.25e-08	i

(listing goes on)
SMILES	Resorufin fluor	TSHR agonist	AID923	A647 autofl	A488 fluor
CCC(C)(C)n1nnnc1C(c1ccc(OC)c(OC)c1)N1CCN(c2ccc(F)cc2)CC1 (stereo not drawn)	i	?	-1.8%	1e-09	i
COc1ccc(OC)c(-c2c[n+](=O)c3c(n2[O-])CCCC3)c1	i	-1.6%	1.4%	2.79e-08	i
COC(=O)C1(CCSC)NC(c2ccccc2OC)C2C(=O)N(C)C(=O)C21 (stereo not drawn)	i	-3.8%	-0.6%	1e-09	i
CCCOC(=O)CCn1c(=S)oc2ccccc21	i	10.5%	-0.2%	2.77e-08	i
CCCCCn1c(SCC#N)nc2cc(C(=O)NC3CCCCC3)ccc2c1=O	i	7.2%	-1.2%	1e-09	i
CCOC(=O)CNC(=O)c1ccc2c(c1)OCCO2	i	4.0%	-0.7%	1e-09	i
CC(C)CO/N=C1/C[C@@H](O)[C@@H](O)[C@@H]2[C@@H]3C(=O)N(C[C@@H]4CCCO4)C(=O)[C@H]3CC[C@@H]12	·	-4.1%[11.4 µM]	3.2%[11.5 µM]	·	·
CCc1ccc(CCC(=O)Nc2ccc(C)cc2C)o1	i	8.6%	-0.8%	1.17e-08	i
CC(CC(=O)O)(CC(=O)O)C(=O)O	i	?	1.1%[11.5 µM]	3.76e-08	i
CC(/C=C/c1ccc(Cl)o1)=C\C(=O)O	i	23.2%	0.5%	1.4e-09	i
COCCCN1CC23C=CC(O2)C(C(=O)OC)C3C1=O (stereo not drawn)	i	1.3%	-0.2%	2.07e-08	i
CC1(CC(=O)O)O[C@H]2CCCCC[C@H]2O1 (stereo partly drawn) (tested in a mixture with another compound)	i	6.1%[11.4 µM]	-0.8%[11.5 µM]	9.4e-09	i
COC(=O)c1ccc(S(=O)(=O)N(Cc2cc3cc4c(cc3[nH]c2=O)OCO4)C2CCCCC2)cc1	i	14.3%	3.9%	5.83e-08	i
Cn1c(SCc2nc3ccccc3c(=O)[nH]2)nnc1-c1ccco1	i	2.9%	-0.3%	5.68e-08	i
CCCOc1ccc(N2C(=O)CC(N(O)c3ccccc3)C2=O)cc1 (stereo not drawn)	i	-20.1%	1.0%	1e-09	i
COc1cccc(-n2nnc3c(=O)n(Cc4ccc(F)cc4)cnc32)c1	i	?	0.9%	1e-09	i
CCCn1cnc2cc(NCc3cccc(OC)c3)ccc21	i	-5.0%	-0.2%	9.8e-09	i
COCC(C)n1c(C)cc(C(=O)COc2ccc(S(=O)(=O)N3CCOCC3)cc2Cl)c1C (stereo not drawn)	i	11.0%	0.1%	1e-09	i
COC(=O)CCc1n[nH]c(=O)[nH]c1=O	·	-5.2%	-0.8%	·	·
CC(C(=O)Nc1ccccc1C(=O)N1CCCC1)n1nnc2ccccc21 (stereo not drawn)	i	-0.1%[11.4 µM]	-0.6%	4.4e-09	i
COc1cccc(-c2cc(N(C)Cc3ccco3)ncn2)c1	i	-2.0%	4.8%	2.2e-09	i
COc1cccc(Cn2c(Oc3ccccc3)nc3c2c(=O)n(C)c(=O)n3C)c1	i	·	·	1.14e-08	i
c1cc(CNCCN2CCNCC2)ccn1	i	3.5%[11.4 µM]	-2.5%[11.5 µM]	1.15e-08	i
C=CCn1cnc2c(c1=O)c1nc3ccccc3nc1n2/N=C/c1ccccn1	i	-9.6%	-0.2%	1e-09	i
CCc1ccc2nc(NC(=O)c3cc(C)on3)sc2c1	i	-1.0%	-0.7%	2.78e-08	i
O=C(Nc1ccc(OCC(=O)N2CCN(S(=O)(=O)c3ccccc3)CC2)cc1)c1ccco1	i	-2.5%	0.1%	3.51e-08	i
O=C(NC1CC2CCC1C2)C1COc2ccccc2O1 (stereo not drawn)	i	-10.2%	-1.2%	1e-09	i
COC(=O)c1cc(OC)c(OC)cc1NC(=O)Nc1ccc(OC)cc1OC	i	6.1%	1.4%	2.9e-09	i
CCCn1c(CN2CCN(C(=O)c3ccco3)CC2)nc2c1c(=O)n(C)c(=O)n2C	·	4.7%	2.9%	·	·
C=CCOC(=O)C1=C(C)NC(SCC(=O)OCC)=C(C#N)C1c1ccc(O)c(OC)c1 (stereo not drawn)	i	8.8%	3.0%	1e-09	i
O=C(Nc1cccc2nsnc12)c1ccc2c(c1)OCCO2	i	·	18.1%	1.93e-08	i
COc1ccc(C(O)P(=O)(O)CCc2ccccc2)cc1 (stereo not drawn)	i	?	-0.9%	3.7e-08	i

From PubChem BioAssay

Some of the compounds tested; rates above refer to the full screens.
